NPYLR7 ag: agonists of mosquito NPYLR7 receptor, primary screen, cell-based, Aedes aegypti, calcium fluorescence, mosquito biting behavior | HEK293T NPYLR7/Galpha15, GCaMP6s calcium fluorescence | AID 1259423, 2018 | 0.15% of 270,000 active | Aedes aegypti neuropeptide Y-like receptor 7 (NPYLR7) | activation, % at 10 µM; in the data active means activation above about 40%;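 further: 0% = vehicle and 100% = reference agonist at the receptor; some compounds past the cut are filed as inactive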
NPYLR7 ag max-min: recorded beside NPYLR7 ag, whose call it bears; activation, %; measured here: Max-Min RFU normalised activation; some inactives read as strong as hits;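 span of the calcium signal over five minutes; 0% = vehicle and 100% = native peptide agonist; compound fluorescence can raise it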
The depositor's hits bear a star. Not all compounds are listed; rates above refer to the full screens.

SMILES	NPYLR7 ag	NPYLR7 ag max-min
Clc1ccc(C(Sc2nnc(C3CC3)n2C2CC2)c2ccccc2)cc1 (stereo not drawn)	7	2
COc1cc(C(=O)N2CCC(NC(=O)c3cc(C)on3)CC2)ccc1OC(C)C	1	0
Cc1nc2c(c(C)c1CC(=O)N(C)Cc1ccsc1)c(=O)[nH]n2C	7	4
Cc1ccc(C)c(NC(=O)CCn2cc(-c3sccc3C)nn2)c1	21	10
C=CCN(Cc1ccccc1OC)C(C)=O	9	5
CCc1noc(C)c1C(=O)NCc1cccnc1Oc1ccc(C)nc1	-1	0
CCCN(CCC(=O)NCCN1CCOCC1)c1nc(-c2ccccc2)nc2cc(Cl)ccc12	-32	-23
CNS(=O)(=O)c1ccc(C(=O)N2CCC(c3nc4ccccc4o3)CC2)cc1	6	4
CCCC(C)NC(=O)CSc1nnc(-c2ccc(Cl)cc2)o1 (stereo not drawn)	-5	-12
O=C(Cn1nc2c(c1NC(=O)c1ccc(F)cc1F)CSC2)NCc1ccc(F)cc1	-4	-3
COc1cc(NC(=O)CCc2ccc3c(c2)OCO3)cc(OC)c1OC	30	24
C=CCn1c(SCC(=O)NC(N)=O)nnc1-c1cc2c(s1)CCC(C(C)(C)C)C2 (stereo not drawn)	4	1
CC(C)n1nccc1NC(=O)CN1C(=O)NC(C)(C)C1=O	3	2
COc1ccc2c(c1)OC1(C)CC2C(S(=O)(=O)c2ccc(C)cc2)C(=O)N1 (stereo not drawn)	6	9
C=CCn1cc(CN(C)Cc2nnc(-c3ccccc3)o2)c(C)n1	12	5
CCOC(=O)C1CCN(C(=O)c2ccc(CSc3nc(C)cc(N4CCN(CC)CC4)n3)o2)CC1	13	13
C=CCCC(=O)N1CCN(c2nccc(-c3ccc4c(c3)OCO4)n2)CC1	2	1
CC1(C)CC(=O)C=C(C(=O)O)O1	0	-3
O=C(O)CN1C(=O)C2C3CCC(C3)C2C1=O (stereo not drawn)	4	2
COCCn1cnc2cc(NC(=O)C3CCCCC3)cc(C(=O)N3CCOCC3)c21	6	1
COCCNC(=O)Cn1nc2c(c1NC(=O)C(C)(C)C)CSC2	-7	-3
COc1ccccc1Oc1cc(C(C)C)nc(SCc2cccc(C(F)(F)F)c2)n1	21	16
C#CCOCC(O)CN(Cc1ccc(F)cc1)Cc1c(-c2ccccc2)noc1N1CCOCC1 (stereo not drawn)	9	14
CCOC(=O)c1ccc2c(c1)nc(SCc1ccc(C#N)cc1)n2Cc1ccccc1	-7	-10
O=C(CN1C(=O)c2ccccc2C1=O)N1CCOCC1	-9	-14
COc1ccc(C(=O)CN2CCC(C(=O)NC(c3ccc(-c4ccccc4)cc3)c3cnccn3)CC2)cc1 (stereo not drawn)	2	4
CCOc1cc(C=O)c(O)c(C=O)c1	827*	695*
O=C(Cc1c[nH]c2ccccc12)N1CCCCC1C1OCCO1 (stereo not drawn)	-25	-28
CCN(Cc1nc2ccccc2c(=O)[nH]1)C(=O)C1CCCCC1	7	6
COc1ccccc1Nc1nc(-c2ccccc2)c2cc(Cl)ccc2n1	-3	-9
CC(=O)Nc1ccc(C)c(NC(=O)NCC(c2ccsc2)N(C)C)c1 (stereo not drawn)	5	7
Cc1nn(S(=O)(=O)c2ccc(F)cc2)c(C)c1S(=O)(=O)N1CCCC(C)C1 (stereo not drawn)	3	0
COc1cccc2cc(-c3nc4ccccc4[nH]3)c(=Nc3ccc(C#N)cc3)oc12	-3	-6
COc1ccc(CSc2nnc(-c3cc(-c4ccccc4)nc4ccccc34)n2CC2CCCO2)cc1 (stereo not drawn)	0	9
O=C(Nc1ccc(-c2noc(-c3cccc(Cl)c3)n2)cc1)c1ccco1	-3	-7
Cc1nc(SCCC(=O)N2CCC(Cc3ccccc3)CC2)n(Cc2ccc(Cl)cc2)c1C	-5	4

Filtered by structure, those above containing a thiophene ring, fused or not.
SMILES	NPYLR7 ag	NPYLR7 ag max-min
Cc1nc2c(c(C)c1CC(=O)N(C)Cc1ccsc1)c(=O)[nH]n2C	7	4
Cc1ccc(C)c(NC(=O)CCn2cc(-c3sccc3C)nn2)c1	21	10
C=CCn1c(SCC(=O)NC(N)=O)nnc1-c1cc2c(s1)CCC(C(C)(C)C)C2 (stereo not drawn)	4	1
CC(=O)Nc1ccc(C)c(NC(=O)NCC(c2ccsc2)N(C)C)c1 (stereo not drawn)	5	7

(more compounds)
SMILES	NPYLR7 ag	NPYLR7 ag max-min
O=c1oc(-c2ccco2)nc2ccc(Br)cc12	5	2
COc1ccc(/C=N\Nc2nc(N3CCOCC3)nc(N3CCOCC3)n2)c(C(=O)O)c1OC	2	7
COc1ccc(OCC(O)CN2CCC(=O)N(CC3CC3)CCc3ccccc32)cc1 (stereo not drawn)	-4	10
Cc1ccc(-c2ccc(=O)n(CCCNC(=O)Nc3ccc(F)cc3)n2)cc1	0	-2
CCOC(=O)C=CC(=O)OCc1cc(=O)n2cc(Br)ccc2n1	2	0
C=CCn1cnnc1SCC(=O)Nc1ccc(Br)c(C)c1	-2	1
O=C(OCc1ccccc1)[C@@H]1C[C@@H](O)CN1C(=O)Cc1c(-c2ccccc2)[nH]c2ccccc12	7	10
CCCOC(=O)C1=C(C)N(C)C(=O)NC1c1ccccc1I (stereo not drawn)	1	0
CS(=O)(=O)NCCN1CCC(CCc2ccc(O)cc2)CC1	4	-1
COc1ccccc1C(=O)N1CCC(C(=O)NCCNC(=O)c2ccccc2)CC1	22	30
CCCCOCC(=O)N1CCC2(CC1)CN(C)CCN2C	15	8
O=C(NCC1(c2ccccc2)CCOCC1)C1CCC(=O)N(C2CC2)C1 (stereo not drawn)	-2	-6
c1ccc(CN(Cc2nccs2)CC2CCOC2)cc1 (stereo not drawn)	6	0
Cc1ccc(Sc2ccc(CN3CCOC4(CNCCOC4)C3)o2)cc1 (stereo not drawn)	5	2
O=C(c1ccccc1)N1C2C=CC(C2)N1C(=O)c1ccccc1	-7	-9
COc1ccc(/C=C2\C=C(c3ccccc3)N(c3ccc4ncccc4c3)C2=O)cc1Br	-2	4
O=S(=O)(c1ccc(F)cc1F)N1CCN(CC(OCc2c(F)cccc2F)c2ccc(Cl)cc2)CC1 (stereo not drawn)	-3	-5
COC(=O)c1cccc2c1CCCN2Cc1nc2sc(C(=O)OC)c(C)c2c(=O)[nH]1	4	2
CN(Cc1cc2n(n1)CCNC2)Cc1nc2ccccc2c(=O)[nH]1	18	15
NC(=O)C1CCCCN1S(=O)(=O)NCc1ccccc1 (stereo not drawn)	6	5
O=C(NCCn1ccnc1)c1cccc(COc2cccc(F)c2)c1	-1	0
CN1C[C@@H]2CC[C@H](CC1=O)N2C(=O)Cn1nc2ccccc2n1	8	7
Cc1noc(C)c1CCC(=O)NC1CCCCC1	1	3
C=CC(C)(O)CN(Cc1ccccc1)Cc1c(C)nn(-c2ccccc2)c1Oc1ccccc1OC (stereo not drawn)	9	13
O=C(CS(=O)(=O)Cc1ccc(C(F)(F)F)cc1)N1CCc2ccccc2C1	-2	-2
Cc1ccc(NS(=O)(=O)c2cc(Cl)ccc2Cl)cc1S(=O)(=O)Nc1ccccc1F	1	-1
OCc1ccc(-c2cc(NC3CCCC3)nc3[nH]ccc23)c(CO)c1	3	-4
COCCCNC(=O)C(NC(=O)c1ccc(OC)cc1)C1CCN(C(=O)COC)CC1 (stereo not drawn)	-3	-7
O=C(CN1CN(c2ccccc2)C2(CCN(C(=O)c3cccc(Br)c3)CC2)C1=O)NCCc1ccc(Cl)cc1Cl	33	29
CCCn1nccc1NC(=O)c1ccc(C)s1	1	0
Cc1[nH]n(-c2ccc(Cl)cc2)c(=O)c1C1=C(c2c(C)[nH]c3ccccc23)C(=O)N(Cc2ccc(F)cc2)C1=O	0	-1
O=c1ccn(CCc2nnc(SCc3ccccc3)o2)c(=O)[nH]1	-1	-2
CCOC(=O)CNC(=O)CSc1ccc2nnc(CCNC(=O)c3ccccc3)n2n1	10	-2
CCc1nnc2sc(/C=C/c3ccccc3)nn12	18	9
CSc1nsc(SC)c1NC(=O)OCCc1ccccn1	-2	-2
CCOC(=O)c1ccc2c(c1)nc(SCc1ccc(Cl)cc1F)n2Cc1ccccn1	4	-2

Reprinted at random: five compounds from above
SMILES	NPYLR7 ag	NPYLR7 ag max-min
Cc1ccc(NS(=O)(=O)c2cc(Cl)ccc2Cl)cc1S(=O)(=O)Nc1ccccc1F	1	-1
CCc1nnc2sc(/C=C/c3ccccc3)nn12	18	9
COCCCNC(=O)C(NC(=O)c1ccc(OC)cc1)C1CCN(C(=O)COC)CC1 (stereo not drawn)	-3	-7
OCc1ccc(-c2cc(NC3CCCC3)nc3[nH]ccc23)c(CO)c1	3	-4
CCCn1nccc1NC(=O)c1ccc(C)s1	1	0

(more compounds)
SMILES	NPYLR7 ag	NPYLR7 ag max-min
CC(=O)NCCC1CN(C2CCN(c3ccc(C)cc3)CC2)CCO1 (stereo not drawn)	11	7
CNS(=O)(=O)c1cc(Cl)cc(Br)c1OC	11	7
NCc1ccc(COc2ccccc2)cc1	4	1
C=C1c2ccccc2C(=O)N1CC(=O)Nc1ccc(C(C)C)cc1	2	-2
Cc1ccc(CCNC(=O)c2cc(Cn3ccc4ccccc43)[nH]n2)cc1C	5	5
N#Cc1cc(NC(=O)c2ccc(F)cc2F)ccc1OCC(F)(F)F	19	17
O=C(Nc1ccc(Oc2ccccc2)nc1)C1CCN(C/C=C/c2ccccc2)CC1	-3	-6
CCOc1ccc(S(=O)(=O)NN=C2C=C(C)CC2)cc1	4	4
Cc1c(C(=O)NC[C@H](O)CO)c(-c2ccccc2)nn1-c1ccccc1	-2	-5
N#CC1C(=N)OC2=C(C(=O)CCC2)C1c1cccnc1 (stereo not drawn)	-11	-20
CCOC(=O)c1nn(-c2ccc(C)cc2)c(=O)c2c(NC(=O)c3ccccc3)scc12	-13	-11
O=C(C1CC1)N1CCN(c2nc(-c3cccs3)nc3cc(Cl)ccc23)CC1	5	12
O=C(O)C1CSC(c2ccc3c(c2)OCCO3)N1 (stereo not drawn)	8	5
CC(=O)Nc1ccc(SCC(N)=O)nn1	-2	-3
O=c1c(Cl)c(N2CCN(c3ccccn3)CC2)cnn1-c1nc2ccccc2[nH]1	-2	10
CN1CCCn2nc(C(=O)NC3CCN(Cc4cccc(O)c4)CC3)cc2C1	25	17
COCc1nc(NCC2(N3CCOCC3)CCCCC2)c2cnn(C)c2n1	2	-1
Cc1cc(C)c(NC(=O)CSc2nc(=O)n(Cc3ccco3)c3c2CCC3)c(C)c1	17	7
COc1ccc(OCC(=O)N=Nc2c(O)[nH]c3c(C)cccc23)cc1	-8	-12
CCN1CCN(CC(C)CN=C(N)NC2CC2)CC1 (stereo not drawn)	-1	5
O=C(NC1CCc2ccccc21)C1CCN(C(=O)c2cccs2)CC1 (stereo not drawn)	-1	0
C1=C(Cc2nc(-c3ccccc3)nn2-c2ccccn2)CCNC1	5	4
CCCCCc1ccc(C(=O)NC(C)c2nnc(SCc3cccc(OC)c3)n2-c2ccc(C)cc2)cc1 (stereo not drawn)	16	13
CC(=O)N(C)c1ccc(NS(=O)(=O)c2ccc(C)cc2)c2c1C(=O)c1ccccc1C2=O	6	6

In a second layout: 3 of the compounds above.
Structure,NPYLR7 ag,NPYLR7 ag max-min
CN1CCCn2nc(C(=O)NC3CCN(Cc4cccc(O)c4)CC3)cc2C1,25,17
COCc1nc(NCC2(N3CCOCC3)CCCCC2)c2cnn(C)c2n1,2,-1
Cc1cc(C)c(NC(=O)CSc2nc(=O)n(Cc3ccco3)c3c2CCC3)c(C)c1,17,7

Continuation:
SMILES	NPYLR7 ag	NPYLR7 ag max-min
Cn1ncnc1COc1ccc(S(=O)(=O)NC2CCCC2)cc1	-1	-1
Cn1ccnc1-c1ccc(-c2nccn2C)cc1	3	-2
Cc1[nH]c2ccccc2c1SCC(=O)N1CCC(C)CC1	-4	-4
COc1ccc(-c2[nH]ncc2CNC(Cn2ccnc2)C(C)(C)C)c(OC)c1 (stereo not drawn)	1	-4
Cc1nnc(SCCCNC(=O)c2cn(-c3ccccc3)nn2)s1	-1	-7
CC(=O)N1CCN(c2ncccc2CNC(=O)c2cccc3c2OCC3)CC1	1	-1
COC(=O)c1ccc(Cn2cnc3c2c(=O)n(Cc2ccccc2)c(=O)n3-c2ccccc2C)cc1	3	0
CCn1ccc(=O)nc1SCCC1CCCC1=O (stereo not drawn)	3	1
CC(C)NC(=O)c1c(NC(=O)c2cccs2)sc2c1CCCC2	4	3
COc1cccc(CN(Cc2ccc3c(c2)OCO3)CC(C)O)c1OC (stereo not drawn)	1	5
CC(c1n[nH]c(=S)n1-c1ccc(F)cc1)N(C)C (stereo not drawn)	-6	-9
Cc1cccc(Cl)c1S(=O)(=O)Nc1ccccc1C(=O)NC1CCCCC1	2	-2

Already shown: 2 of the compounds above.
SMILES	NPYLR7 ag	NPYLR7 ag max-min
Cn1ncnc1COc1ccc(S(=O)(=O)NC2CCCC2)cc1	-1	-1
Cn1ccnc1-c1ccc(-c2nccn2C)cc1	3	-2

Continued.
SMILES	NPYLR7 ag	NPYLR7 ag max-min
O=C(NCCNc1cc(-n2cccn2)ncn1)c1ccccc1Cl	-9	-13
COc1cc(CN2CCN(CC3CC4C=CC3C4)CC2)cc(OC)c1O (stereo not drawn)	8	2
COc1ccccc1OC1CN(Cc2cnc(N)nc2)C1	3	2
C=CCn1c(SCc2cn3ccsc3n2)nc2sc3c(c2c1=O)CCC(C)C3 (stereo not drawn)	-12	-16
CCCCCCCC(=O)N1CCC2(CC1)SCCN2C(=O)c1cccc(OC)c1	-9	-9
Cc1cc2c(N=NC(=O)c3ccccc3C)c(O)[nH]c2cc1Br	-3	-8
Cc1ccn2c(=O)nc(SCC(=O)NCc3ccccc3)nc2c1	1	1
COC(=O)c1ccc(CN2CCCCC2C(=O)Nc2ccc(Oc3cccnc3)cc2)cc1 (stereo not drawn)	2	-8
CC(Oc1ccc(Cl)cc1Cl)C(=O)NC(c1ccc(F)cc1)c1nccn1C (stereo not drawn)	11	15
CCOC(=O)CN(C(=O)N1CCOCC1)[C@@H]1C[C@@H]2CO[C@H](c3ccccc3)C[C@@H]2C1	15	18
CC(c1cc2ccccc2[nH]1)N(C)C(=O)c1cc2n(n1)CCN(C)C2 (stereo not drawn)	14	14
CC(=O)N1CCc2cc(C(=O)Nc3cccc(Cl)c3Cl)ccc21	-15	-19

Screens (PubChem)
